APJ ag = activates the human apelin receptor APJ; P35414; CHO-K1 APJ PathHunter beta-arrestin, luminescence; 0% DMSO wells, 100% apelin; 330,000 tested, 0.11% active; activation, % at 20 µM;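 active = activation more than six SD over the plate average, tested at 20 µM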;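 note: 0% = DMSO alone and 100% = apelin-13 at 10 nM; some results filed as inactive read as strong as hits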
Target sequence (P35414 whole entry, looked up): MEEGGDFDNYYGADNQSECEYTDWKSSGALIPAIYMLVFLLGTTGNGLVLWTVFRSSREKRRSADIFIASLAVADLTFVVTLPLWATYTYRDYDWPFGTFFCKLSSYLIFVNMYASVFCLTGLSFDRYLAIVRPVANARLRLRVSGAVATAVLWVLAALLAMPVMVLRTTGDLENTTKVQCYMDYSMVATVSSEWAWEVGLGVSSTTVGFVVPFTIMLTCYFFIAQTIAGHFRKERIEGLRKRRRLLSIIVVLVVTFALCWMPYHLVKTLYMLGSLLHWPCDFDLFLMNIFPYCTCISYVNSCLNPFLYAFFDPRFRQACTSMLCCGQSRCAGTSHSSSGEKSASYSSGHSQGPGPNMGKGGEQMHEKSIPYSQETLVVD
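Test system – PathHunter CHO-K1 APJ (AGTRL-1) beta-arrestin reporter cells · Input – 1000 cells/well · Compound – single test compound dose, 20 µM final, 1% DMSO · Times – compound stimulation 90 min at 25 °C, detection 60 min · Technique – beta-gal luminescence · Read-out basis – APJ–arrestin association signal · Control set – negative DMSO alone, positive Apelin-13 at 10 nM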
NALP3 yeast inh = inhibitors of NALP3 inflammasome in yeast. Yeast reconstituted NLRP3/ASC/caspase-1, beta-gal luminescence, 24 h. inhibition, % at 10 µM. 330,000 tested, 0.39% active;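 active = inhibition of 50% or more; inactive = inhibition below 50%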;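 note: plate controls were induced DMSO wells for no effect and uninduced yeast grown without galactose for full effect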
TIM10 inh = inhibits growth of TIM10 yeast strain; S. cerevisiae TIM10 strain growth, BacTiter-Glo luminescence, 24 h; inhibition, % at 10 µM; 330,000 tested, 1.4% active; AID 463195;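 active = inhibition of 40% or more at the single tested concentration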;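 note: wild-type TIM10 isogenic control strain grown at permissive 25 °C; 0% = DMSO yeast wells and 100% = minimal medium wells without yeast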
APJ antag = antagonists of human APJ apelin receptor; P35414; CHO-K1 APJ beta-arrestin complementation, luminescence; inhibition, % at 20 µM; 330,000 tested, 0.32% active;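 active = inhibition above about 40% at 20 µM, limit read from the data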;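 note: cells challenged with 10 nM apelin-13 agonist together with compound; plate controls were apelin-13 plus DMSO wells for no effect and DMSO wells lacking apelin-13 for full effect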
beta cell repl = MIN6 beta-cell proliferation induction; MIN6 cells proliferation, ATPlite luminescence, 48 h; cells starved in 0.2% serum; 100% = growth in 10% serum; proliferation, % at 10 µM; 330,000 tested, 0.29% active; AID 2380;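 active = compounds whose signal lies at least 3.5 SD above the mean of all wells on their plate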;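 note: 0% = DMSO-treated cells in low-serum medium and 100% = 10% serum control; some compounds called inactive have numbers as strong as hits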
Starred values were filed as active, the others as inactive.

nr	molecule	APJ ag	NALP3 yeast inh	TIM10 inh
1	C=C(C)[C@H]1CN[C@H](C(=O)O)[C@H]1CC(=O)O	-0.6	2.6	1.8
2	CN1CCC23c4c5ccc(O)c4O[C@@H]2[C@H](O)C=CC3C1C5 (stereo partly specified)	-4.2	6.9	2.3
3	C[C@]12CC[C@H]3[C@@H](CCC4=CC(=O)CC[C@@]43C)[C@@H]1CC[C@@H]2O	-1.4	46.3	-19.2
4	c1ccc2c(c1)Sc1ccccc1N2CC1CN2CCC1CC2 (stereo unspecified)	0.6	16.9	22.6
5	C#CCN(C)[C@H](C)Cc1ccccc1	-4.1	11.4	1.3
6	O=Cc1cn(Cc2ccc(F)cc2Cl)c2ccccc12	-3.8	-20.0	9.6
7	CCCCC(=O)N/N=C/c1c(O)n(CC)c(=S)n(CC)c1=O	-0.7	3.6	4.7
8	CC(=O)[C@H]1CC[C@H]2[C@@H]3CC[C@H]4C[C@H](O)CC[C@]4(C)[C@H]3C(=O)C[C@]12C	2.9	23.4	-0.1
9	C[N+]1(C)C2CC(OC(=O)C(CO)c3ccccc3)CC1C1OC12 (stereo unspecified)	9.9	0.4	-1.5
10	CCCCCCCCCCCCn1ccc(=N)cc1	-4.6	74.5*	14.4
11	CCC1C2CC3C4N(C)c5ccccc5C45CC(C2C5O)N3[C@@H]1O (stereo partly specified)	-1.3	6.2	10.2

nr	APJ antag	beta cell repl
1	18.3	-0.9
2	1.1	-0.2
3	-6.9	-0.9
4	18.3	-7.7
5	7.0	1.5
6	8.7	-3.3
7	11.3	-3.1
8	13.1	-0.8
9	10.2	-1.1
10	30.6	-4.0
11	13.0	2.1

Rewritten in transposed form: 3 of the compounds above.
1) C=C(C)[C@H]1CN[C@H](C(=O)O)[C@H]1CC(=O)O
9) C[N+]1(C)C2CC(OC(=O)C(CO)c3ccccc3)CC1C1OC12 (stereo unspecified)
10) CCCCCCCCCCCCn1ccc(=N)cc1
assay / entry | 1 | 9 | 10
APJ ag | -0.6 | 9.9 | -4.6
NALP3 yeast inh | 2.6 | 0.4 | 74.5*
TIM10 inh | 1.8 | -1.5 | 14.4
APJ antag | 18.3 | 10.2 | 30.6
beta cell repl | -0.9 | -1.1 | -4.0

Record cards, as listed above. Values in the order: APJ ag, NALP3 yeast inh, TIM10 inh, APJ antag, beta cell repl
Profile of CN1CCC23c4c5ccc(O)c4O[C@@H]2[C@H](O)C=CC3C1C5 (stereo partly specified) → -4.2, 6.9, 2.3, 1.1, -0.2
Profile of O=Cc1cn(Cc2ccc(F)cc2Cl)c2ccccc12 → -3.8, -20.0, 9.6, 8.7, -3.3

Quoted from the listing.
entry 7 – APJ antag = 11.3
entry 10 – TIM10 inh = 14.4
entry 6 – TIM10 inh = 9.6
entry 1 – TIM10 inh = 1.8
entry 5 – APJ ag = -4.1

Screens as filed in PubChem.

The list is partial, so the mix of outcomes need not match the whole.
